Screens deposited in PubChem by National Center for Advancing Translational Sciences (NCATS).
TRPML1 blocker = human mucolipin-1 channel inhibition. Q9GZU1. TRPML1-inducible cells, Ca2+ dye fluorescence, FDSS; stronger effect = lower value; inhibition of EC80 agonist-evoked calcium signal. activity change, negative = inhibition, % (concentration not given with the values). hit rate 0.02% among 390,000. AID 624415; in the data active means activity change below about -50%; inconclusive means about -30% to -50%; inactive means above about -30%;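 note: stimulus is agonist 54-4 at its EC80 concentration; % is set by controls: 0 for no effect and ±100 for the full control effect; compound concentration not given in the record; the text of the record puts the active cut at -80%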
Target sequence (Q9GZU1 whole entry, looked up): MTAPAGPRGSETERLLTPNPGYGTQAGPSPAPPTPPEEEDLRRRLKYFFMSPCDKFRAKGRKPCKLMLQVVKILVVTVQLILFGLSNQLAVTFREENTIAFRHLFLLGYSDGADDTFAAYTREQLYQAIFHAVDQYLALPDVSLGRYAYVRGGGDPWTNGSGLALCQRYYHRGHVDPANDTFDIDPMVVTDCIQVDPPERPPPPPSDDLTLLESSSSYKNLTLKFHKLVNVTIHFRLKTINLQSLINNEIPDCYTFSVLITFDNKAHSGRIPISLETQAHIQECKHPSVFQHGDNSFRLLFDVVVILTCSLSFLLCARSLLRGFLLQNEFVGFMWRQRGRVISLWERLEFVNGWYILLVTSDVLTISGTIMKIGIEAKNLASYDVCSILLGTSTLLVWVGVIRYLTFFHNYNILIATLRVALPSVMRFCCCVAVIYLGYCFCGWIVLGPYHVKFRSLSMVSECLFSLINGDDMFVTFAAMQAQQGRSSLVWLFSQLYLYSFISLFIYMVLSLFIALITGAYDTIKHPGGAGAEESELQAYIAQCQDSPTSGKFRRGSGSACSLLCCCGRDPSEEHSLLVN
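Calcium fluorescence in TRPML1-DL cells induced overnight with Tet: a 110 s read after compound pin addition, then a 110 s antagonist read after challenge with 54-4 at 4 uM final (EC80).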
Six1-Eya2 inh = inhibitors of human Six1/Eya2 interaction | AlphaScreen GST-Six1/His-Eya2 binding, biochemical; stronger effect = lower value; control for the full effect not named in the record | activity change, % (test concentration not listed) | hit rate 0.56% among 360,000 | Q15475+O00167; in the data active = activity change below about -65%; inconclusive = about -30% to -65%; inactive = above about -30%; note: % is set by controls: 0 for no effect and ±100 for the full control effect; compound concentration not given in the record
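AlphaScreen luminescence read after one hour at 37 °C in darkness. Pin-transferred compounds met GST-Six1 and His-Eya2 protein (5X stock 250 nM/500 nM) plus glutathione donor and Ni-chelate acceptor beads (5X, 50 ug/mL).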
TRPML1 agonist = human mucolipin-1 channel agonism | activation, % (concentration not given with the values) | TRPML1-expressing cells, Ca2+ dye fluorescence, FDSS; host cell line not named in the record; reference of the full effect not given here | hit rate 0.12% among 410,000 | Q9GZU1; in the data active = activation above about 50%; inconclusive = about 30% to 50%; inactive = below about 30%; note: 0% is about no effect; the text of the record puts the active cut at 80%
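Kinetic FDSS Ca2+ read in Tet-induced TRPML1-DL cells (ABD Ca8 dye plus quencher, 45-90 min RT loading): baseline, then compound, then 110 s agonist window; EC80 agonist 54-4 at 4uM final added afterwards for a 110 s antagonist window.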
D2 ag = activates the human D2 dopamine receptor | DiscoveRx PathHunter D2 beta-arrestin, luminescence, 90 min; 100% = 57 uM dopamine signal | hit rate 0.084% among 360,000 | activation, % (no concentration beside the values); in the data active = activation above about 40%; inconclusive = about 15% to 40%; inactive = below about 15%; note: compound concentration not given in the record; the text of the record calls up to 30% inactive
Target sequence (P14416 whole entry, looked up): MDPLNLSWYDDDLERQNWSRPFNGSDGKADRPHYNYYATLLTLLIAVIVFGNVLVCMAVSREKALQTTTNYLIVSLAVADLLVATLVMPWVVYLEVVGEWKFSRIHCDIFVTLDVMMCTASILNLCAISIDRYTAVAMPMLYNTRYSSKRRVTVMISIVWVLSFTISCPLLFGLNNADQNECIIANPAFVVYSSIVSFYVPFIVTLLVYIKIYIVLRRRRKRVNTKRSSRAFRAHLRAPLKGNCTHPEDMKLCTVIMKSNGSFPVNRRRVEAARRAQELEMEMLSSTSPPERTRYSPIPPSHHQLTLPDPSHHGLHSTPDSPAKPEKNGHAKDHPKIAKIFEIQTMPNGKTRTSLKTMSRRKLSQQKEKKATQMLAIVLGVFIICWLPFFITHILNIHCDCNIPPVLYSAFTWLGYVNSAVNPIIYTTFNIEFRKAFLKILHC
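DiscoveRx PathHunter D2 beta-arrestin cells (2,100/well) attached overnight, then compound-stimulated 90 min at 37 C in HBSS/10 mM HEPES/0.1% Tween-20 buffer; beta-galactosidase complementation read by luminescence after 1 h at ambient temperature. Dopamine 57 uM final (EC100) as control.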
PINK1 expr mod = PINK1 expression modulation; Potency, µM (top dose mostly 76.6 µM), without a hit: at the highest dose activation (PINK1 increase), actives largely listed as activators; AID 624263; hit rate 0.2% among 410,000; PINK1 immunofluorescence, high-content cytometry, 24 h; active = well fitted activation curve with a large enough effect; inconclusive = small, poorly fitted or top-dose-only effect; inactive = flat fitted curve, though single readings scatter; cell line not stated here;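 note: potency is the fitted concentration of half-maximal effect; % of control where 0% means no effect; nearly all actives have a fitted effect of over 65% in size; a mitochondrial uncoupler was the plate control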
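Readout is PINK1 immunofluorescence, quantified alongside mitochondrial, cell and nuclear markers by laser-scanning microplate cytometry. Cells from a stable line were exposed to compound titrations (5 concentrations) for 24 hours, with CCCP controls.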
D2 potentiator = human D2 receptor positive allosteric modulation. P14416. DiscoveRx D2 beta-arrestin cells, luminescence, 90 min; 100% = 57 uM dopamine signal. potentiation, % (concentration not given with the values). hit rate 0.23% among 360,000; active = potentiation of 50% or more; inconclusive = 30% to 50%; inactive = 30% or less;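 note: compound concentration not given in the record; tested on top of an EC20 dose of dopamine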
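PathHunter D2 cells, attached overnight at 37 deg C, received compound in DMSO plus dopamine at EC20 (50 nM final) for 90 min at 37 deg C. Beta-arrestin recruitment was read as luminescence after 1 h with detection reagent at ambient temperature.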
* marks the source's active call; other numbers are inactive results; ? = inconclusive; nt = no result given; & = joins results of further samples; [ ] = another dose, or the depositor's remark.

Structure | TRPML1 blocker | Six1-Eya2 inh | TRPML1 agonist | D2 ag | PINK1 expr mod | D2 potentiator
Cc1[nH]c2ccc(C(=O)NCc3ccccn3)cc2c1C | -3.6 | -10.7 | -0.2 | -0.8 | -0.9% | -35.7
O=c1[nH]ncc(NCCCO)c1Cl | -9.0 | 4.0 | 0.7 | -1.2 | 3.4% | -25.5
COc1ccc(-c2noc(CSc3nnc(Cc4ccccc4)n3-c3ccc(Cl)cc3)n2)cc1 | 10.5 | -9.2 | 3.7 | -2.1 | -5.4%[38.3 µM] | -11.9
O=C(COC(=O)c1cc(S(=O)(=O)Nc2ccccc2Cl)ccc1O)Nc1nc2ccccc2s1 | 4.8 | -15.2 | 0.1 | 0.6 | 1.2% | -1.5
CCOC(=O)c1cccc(NC(=O)CSc2nc(N)cc(N)n2)c1 | -3.0 | -1.0 | 1.2 | -0.1 | -0.2% | 5.6
COc1ccc(Oc2nnc(C)c3ccccc23)cc1 | 19.2 | -1.4 | 3.2 | -3.1 | -0.1% | -5.6
CSc1cccc(NC(=O)C2CCCN(S(=O)(=O)c3ccc(F)cc3)C2)c1 (stereo unspecified) | -16.6 | -4.9 | 1.2 | -2.5 | -3.2% | -12.8
CN(C)C(=O)c1ccc(OCC(F)(F)F)nc1 | 24.6 | 0.5 | 0.1 | -2.8 | 2.9% | -2.5
O=C1CN(C(=O)COC(=O)CNC(=O)c2ccccc2)c2ccccc2N1 | 49.8 | 5.4 | 0.0 | -4.0 | 1.3% | -36.3
CSCCC(C)N1CCC(Oc2ccc(C(=O)N3CCCC3)cc2)CC1 (stereo unspecified) | 13.8 | -18.7 | -0.1 | -4.3 | -1.6% | -12.4
COc1cccc(OC(=O)CSc2nnc(-c3cccs3)o2)c1 | 47.5 | nt | 2.5 | nt | 1.1% | nt
Nc1ccc(S(=O)(=O)NC2(C(F)(F)F)NC(=O)N(Cc3ccccc3)C2=O)cc1 (stereo unspecified) | 11.7 | 5.4 | 0.1 | -0.4 | 1.9% | -1.8
CC1CCc2c(sc(NC(=O)c3cc(-c4ccc(Br)cc4)on3)c2C(N)=O)C1 (stereo unspecified) | 42.3 | nt | -0.3 | nt | 1.6% | nt
COc1ccc(C=O)cc1COc1ccc(C)cc1[N+](=O)[O-] | 25.4 | -3.8 | 0.5 | -3.1 | 2.2% | -3.5
O=C(CSc1nc2ccccc2nc1N1CCCC1)Nc1ccc(Cl)cc1 | 6.5 | 19.4 | 0.9 | -1.0 | 1.6% | -1.9
COCCNC(=O)C(c1cccnc1)N(Cc1ccccc1)C(=O)Cn1nnc2ccccc21 (stereo unspecified) | 0.6 | 24.8 | 1.2 | 3.7 | 0.2% | -3.3
Cc1ccsc1C(=O)N/N=C/c1ccc([N+](=O)[O-])cc1 | 18.4 | 2.0 | -0.4 | -6.1 | 8.8% | 0.6
O=C(c1cc(COc2c(F)cccc2F)on1)N1CCSCC1 | 25.1 | 0.3 | 1.2 | -1.3 | 2.5% | 1.4
CCOC(=O)c1c(NC(=O)CSc2nnc(-c3cccnc3)o2)sc2c1CCC2 | 13.0 | 1.1 | -0.4 | -3.5 | -0.9% | -3.5
FC(F)(F)c1cccc(NC(=S)NCc2ccc(Cl)cc2)c1 | -1.9 | 11.4 | 0.2 | 3.2 | ? | -13.9
Cc1cc(C)n2nc(C(=O)OCC(=O)Nc3ccc(F)cc3F)nc2n1 | -4.6 | -0.7 | 0.1 | -1.4 | -0.1% | -14.7
COc1ccc(OC/C(O)=C(\C#N)c2nc3ccccc3[nH]2)cc1 | -6.5 | 5.8 | -0.6 | 1.6 | 1.2% | 7.7
Cc1cccc(-c2ncc(CN3CCN(CCC(C)C)C(CCO)C3)cn2)c1 (stereo unspecified) | -1.6 | -4.9 | 1.3 | 4.1 | -1.0% | -5.1
Cc1ccc(NC(=O)COc2cccnc2[N+](=O)[O-])cc1S(=O)(=O)N1CCOCC1 | -13.9 | -2.3 | 0.5 | -18.2 | -0.2% | 6.4
Cc1nc(SCC(N)=O)c(C#N)c(C)c1C | -4.0 | -0.5 | 1.2 | -2.0 | -0.1% | -6.1
COc1ccc(CN2CCN(C3CCOCC3)CC2CCO)c(C)c1C (stereo unspecified) | 6.7 | -2.3 | -0.1 | -3.8 | -0.5% | -23.3
CN(CC(=O)Nc1ccccc1F)Cc1cccs1 | 3.4 | 6.7 | -1.2 | -5.0 | 4.5% | -4.1
COc1ccccc1C(=O)NCC(=O)NCCC(c1ccccc1)c1ccccc1 | 14.3 | -5.2 | 1.6 | -0.4 | -1.3% | -32.9
Cc1cc(NC(=S)NC(=O)CC(C)C)ccc1Br | 5.5 | 5.8 | 1.3 | -1.7 | 1.4%[38.3 µM] | -4.7
Cc1ccc(NC(=O)CSc2nc3c(sc4ccccc43)c(=O)n2CCCC(=O)NC2CCCC2)cc1C | 15.9 | nt | -0.7 | nt | -0.1% | nt
CCCCC[C@@H](C)N1C[C@H](COCc2ccccc2)Oc2cc(N3CCC[C@@H]3CO)ccc2S1(=O)=O | nt | -10.9 | -0.6 | nt | 8.4% | nt
O=C(c1ccc2c(c1)N(Cc1ccccc1)C(=O)c1ccccc1S2(=O)=O)N1CCN(c2ccccc2)CC1 | -10.5 | nt | 2.3 | nt | 0.6% | nt
CC(=O)CCc1c[nH]c2c(C(=O)O)cccc12 | 20.7 | 7.2 | -0.6 | -4.6 | -1.9% | -3.4
CC(NC(=O)Nc1nnc(C(F)(F)F)s1)(C(F)(F)F)C(F)(F)F | 22.0 | 6.8 | 2.3 | 2.9&10.2 | ? | 5.9
O=C(Nc1ccccc1C(=O)O)C1=NN=CC1 | -15.9 | ? | 0.3 | -1.2 | 0.9% | -2.9
CCN(CC(=O)Nc1ccc(N2CCOCC2)cc1)C(=O)c1ccc(C#N)cc1 | -1.4 | -7.8 | -0.1 | -3.7 | 0.4% | -2.0
CCN1CCN(C(=O)c2ccc(CSc3ccc(C)cc3)cc2)CC1 | -6.3 | -7.5 | 1.1 | -0.6 | 21.1%[38.3 µM] | -10.5
COc1ccc(NC(=O)CN2CCN(S(=O)(=O)c3ccc(C(C)C)cc3)CC2)cc1OC | 3.0 | 8.9 | -0.7 | -0.1 | -0.1% | 4.3
CC1=NC(C)(C)Cc2cc(C)c(C)cc21 | 17.9 | -3.4 | 0.6 | 0.7 | 1.7% | 4.9
Cc1cc([N+](=O)[O-])ccc1NC(=S)NC1CCCC1 | -1.2 | 8.7 | -0.2 | -1.3 | -0.6% | -17.7
Cc1ccc(NC(=O)CN(C)C(=O)COC(=O)COc2cc(C)cc(C)c2)cc1 | -5.7 | 0.5 | -0.8 | 0.4 | 2.2% | 0.1
CCCNC(=O)C(Cc1ccccc1)NC(=O)c1ccc(C(C)(C)C)cc1 (stereo unspecified) | -10.3 | 0.9 | -0.7 | -3.4 | 11.1% | -10.4
Cc1ccc(NC(=O)CSc2ncccn2)c([N+](=O)[O-])c1 | -9.2 | 0.8 | -0.8 | 0.3 | -0.2% | 10.2
CCN(CC)C(=O)[C@H]1C[C@H](CC(=O)NCCCn2ccnc2)C(=O)N2CCc3c([nH]c4cc(CCC(=O)N(C)C)ccc34)[C@]12C | -9.5 | -3.7 | -0.6 | 1.1 | -0.4% | nt
CC(=O)c1ccc(NC(=O)NC2CCCCCCC2)cc1 | 1.8 | 8.2 | -0.3 | 0.0 | 1.9% | -0.3
O=C(/C=C/c1cccc(F)c1)Nc1cc(S(=O)(=O)N2CCOCC2)ccc1N1CCCC1 | 33.7 | 3.9 | 3.9 | -2.9 | -1.0% | 2.8
COc1ccc(OCCNC(=O)c2ccccc2Cl)cc1 | nt | 3.3 | nt | -19.9 | 0.0% | 0.0
O=C(COc1coc(CN2CCc3ccccc3C2)cc1=O)Nc1ccc(F)cc1F | 23.7 | -1.5 | -0.7 | 0.1 | 3.8% | -3.5
CCOC(=O)C1CCN(Cc2cc(=O)oc3cc(C)ccc23)CC1 | nt | 4.3 | nt | -2.9 | -0.4% | -7.5
Cc1ccc(S(=O)(=O)N2C[C@@H]3[C@H]4CC[C@H](C4)[C@@H]3[C@@H](C)[C@@H]2c2cn(Cc3ccccc3)c3ccc(F)cc23)cc1 | -5.7 | ? | 0.1 | 2.3 | 0.0% | nt
CCn1c(=O)cc(SCC(=O)N2CCN(C3CCCCC3)CC2)c2ccccc21 | -6.2 | -5.7 | 0.2 | -2.6 | 16.7%[38.3 µM] | -7.0
O=C(CSc1nc2ccccc2[nH]1)N1c2ccccc2Sc2ccccc21 | -6.8 | -1.4 | 1.8 | 7.0 | 4.1% | 0.1
Cc1cccn2c(=O)nc(SCC(=O)NCc3ccc4c(c3)OCO4)nc12 | 7.2 | -0.6 | 0.1 | 4.4 | 1.8% | -0.6
CCC(C(=O)OCC(=O)C1(O)CCC2C3CCC4=CC(=O)CCC4(C)C3C(O)CC21C)C(C)C (stereo unspecified) | 7.8 | -3.3 | 1.3 | 9.3 | ? | 55.6*
Cc1cc(O)c2c(C)c(CC(=O)NCc3ccccc3Cl)c(=O)oc2c1 | -22.0 | nt | -1.3 | nt | 4.9% | nt
Cn1cnc([N+](=O)[O-])c1Nc1ccccc1O | 5.0 | -6.4 | 0.3 | -2.9 | -1.4% | -25.6
O=C(NC1CCN(C(=O)C2CCCCC2)CC1)c1ccccc1 | 9.4 | 6.0 | -0.4 | -6.4 | 0.3% | -14.9
COC(=O)COc1ccc(S(=O)(=O)NCc2cccnc2)cc1 | -5.5 | 5.0 | 0.4 | 0.0 | nt | 0.7
O=S(=O)(Nc1nc2ccccc2nc1NCC1CCCO1)c1cccs1 (stereo unspecified) | -1.7 | 6.8 | -0.2 | -1.8 | 1.2% | -2.1
CSc1cnc2c(=O)[nH]c(=O)n(C)c2n1 | -0.2 | 2.0 | 1.6 | -0.2 | 0.5% | -3.4
CCOC(=O)C1CCN(c2cc3c(cc2NC(=O)c2ccccc2Br)n(C)c(=O)n3C)CC1 | 22.0 | 2.7 | -1.2 | 5.6 | -0.9% | -1.8
COCCN(C(=O)CCN1C(=O)C2CC=CCC2C1=O)c1c(N)n(CC(C)C)c(=O)[nH]c1=O (stereo unspecified) | 17.6 | 4.9 | 0.1 | 5.5 | -1.5% | -5.7
O=Cc1cc2c(cc1[B-](F)(F)F)OCO2 | -3.6 | 9.9 | 0.1 | -1.5 | -0.5% | nt

Ordered by heavy-atom count (low to high): some entries from above.
Structure | TRPML1 blocker | Six1-Eya2 inh | TRPML1 agonist | D2 ag | PINK1 expr mod | D2 potentiator
O=S(=O)(Nc1nc2ccccc2nc1NCC1CCCO1)c1cccs1 (stereo unspecified) | -1.7 | 6.8 | -0.2 | -1.8 | 1.2% | -2.1
Cc1ccc(NC(=O)CN(C)C(=O)COC(=O)COc2cc(C)cc(C)c2)cc1 | -5.7 | 0.5 | -0.8 | 0.4 | 2.2% | 0.1
O=C(/C=C/c1cccc(F)c1)Nc1cc(S(=O)(=O)N2CCOCC2)ccc1N1CCCC1 | 33.7 | 3.9 | 3.9 | -2.9 | -1.0% | 2.8
